SARS PLP yeast: qHTS of Yeast-based Assay for SARS-CoV PLP. S. cerevisiae expressing SARS-CoV PLpro, growth rescue; control for the full effect not named in the record. Potency, µM (top dose mostly 32.9 µM), without a hit: top-dose activity, positive = growth rescue. hit rate 0.19% among 330,000. AID 485353, 2010; active means well fitted rising curve with a large enough effect; inconclusive means small, poorly fitted or top-dose-only effect; inactive means no such curve, though single readings can be large or run the other way; note: 0% is about no effect; nearly all actives have a fitted effect of over 55% in size; growth read by luminescence after 48 h
Lassa entry inh: qHTS for Inhibitors of binding or entry into cells for Lassa Virus; Potency, µM (highest dose often 37.9 µM), for inactives: at the top dose activity change, negative = inhibition, most hits filed as inhibitors; hit rate 1.2% among 300,000; Lassa virus pseudotype entry inhibition, cell reporter; control for the full effect not named in the record; active means well fitted inhibition curve with a large enough effect; inconclusive means small, poorly fitted or top-dose-only effect, or effect the other way; inactive means flat fitted curve, though single readings scatter; tested in HEK293 cells; note: % is set by controls: 0 for no effect and ±100 for the full control effect; nearly all actives have a fitted effect of over 50% in size; luciferase read-out
Cruzain inh Det: qHTS Assay for Promiscuous and Specific Inhibitors of Cruzain (with detergent); hit rate 0.43% among 200,000; Cruzipain (Trypanosoma cruzi), P25779; Potency, µM, without a hit: max response, negative = inhibition, most hits filed as inhibitors; purified cruzain, Z-FR-AMC fluorescence, 0.01% Triton; AID 1478, 2009;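 note: plate controls were neutral wells for no effect and buffer without enzyme for full effect; nearly all actives have a fitted effect of over 40% in size; top concentration of the series not given in the record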
Target sequence (P25779 123-467 limits assumed): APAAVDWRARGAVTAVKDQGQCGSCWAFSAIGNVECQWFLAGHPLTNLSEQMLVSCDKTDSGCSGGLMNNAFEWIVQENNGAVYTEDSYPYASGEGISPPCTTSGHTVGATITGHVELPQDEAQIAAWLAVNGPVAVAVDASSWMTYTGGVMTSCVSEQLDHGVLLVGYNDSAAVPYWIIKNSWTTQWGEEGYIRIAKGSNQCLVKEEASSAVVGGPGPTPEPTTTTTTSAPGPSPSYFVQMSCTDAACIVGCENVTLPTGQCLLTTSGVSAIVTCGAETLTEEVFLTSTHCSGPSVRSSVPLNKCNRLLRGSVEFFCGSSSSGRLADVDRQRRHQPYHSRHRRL
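15 min RT preincubation of 1.5 nM cruzain with compound, then 2 uM Z-FR-AMC added; kinetic AMC fluorescence, 60 s delta. Triton X-100 0.01%, pH 5.5.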
RE007 growth inh: qHTS Assay for Inhibitors of the HIV-1 protein Vpr; S. pombe RE007 Vpr strain, BacTiter-Glo ATP luminescence, 24 h; control for the full effect not named in the record; Potency, µM (titrated, usually from 92.2 µM), for inactives: at the top dose activity change, negative = less growth; hit rate 0.21% among 360,000; active = well fitted falling curve with a large enough effect; inconclusive = small, poorly fitted or top-dose-only effect; inactive = no such curve, though single readings can be large or run the other way;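 note: % is set by controls: 0 for no effect and ±100 for the full control effect; nearly all actives have a fitted effect of over 50% in size; the assay follows cell death caused by Vpr and the record does not say whether a fall means rescue or toxicity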
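Fission yeast strain RE007, carrying one chromosomally integrated HIV-1 vpr copy, was seeded at OD 0.01 in PMG+AL medium with 23 nL pinned compound. After 24 h at 30 °C and 99% humidity, viability was read by BacTiter-Glo luminescence.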
MARV entry inh: qHTS for inhibitors of binding or entry into cells for Marburg Virus. Marburg virus pseudotyped entry inhibition, cell reporter; control for the full effect not named in the record; about a third of the inactives were read at about 46 µM. Potency, µM (doses to about 37.8 µM), inactives show at the highest dose activity change, negative = inhibition, most hits filed as inhibitors. hit rate 1.8% among 300,000. AID 540276, 2011; active = well fitted inhibition curve with a large enough effect; inconclusive = small, poorly fitted or top-dose-only effect, or effect the other way; inactive = flat fitted curve, though single readings scatter; tested in HEK293 cells; about a fifth of its hits are not listed in these tables; note: % is set by controls: 0 for no effect and ±100 for the full control effect; luciferase read-out
Cruzain noTriton: qHTS Assay for Promiscuous and Specific Inhibitors of Cruzain (without detergent); purified cruzain, Z-FR-AMC fluorescence, no detergent; Potency, µM, inactives show max response, negative = inhibition, most hits filed as inhibitors; Cruzipain (Trypanosoma cruzi), P25779; hit rate 2.3% among 200,000;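 note: plate controls were enzyme without inhibitor for no effect and buffer without enzyme for full effect; nearly all actives have a fitted effect of over 40% in size; top concentration of the series not given in the record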
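Detergent-free condition (0.00005% Triton X-100) in acetate buffer pH 5.5 with DTT. 1.5 nM enzyme and compound were pre-mixed 15 min, then 2 uM Z-FR-AMC substrate added; reaction progress from fluorescence change between first and third reads (60 s).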
NS1 function inh: qHTS Assay for Inhibitors of Influenza NS1 Protein Function | Potency, µM (top dose mostly 46.1 µM), for the others: at the highest dose activity, positive = more growth | S. cerevisiae slowed by influenza A NS1, growth recovery by OD600 | AID 2326, 2010 | hit rate 0.4% among 270,000; active means well fitted rising curve with a large enough effect; inconclusive means small, poorly fitted or top-dose-only effect; inactive means no such curve, though single readings can be large or run the other way; note: nearly all actives have a fitted effect of over 50% in size
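S. cerevisiae expressing influenza A NS1, grown in glucose, washed, then diluted 1:100 into pH 6.0 -URA galactose medium with 23 nl compound. Growth recovery read as OD600; NS1-free strain serves as control.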
2A StopGo: High Throughput Screening for Foot and Mouth Disease Virus Antivirals | human cells with a luciferase reporter of 2A StopGo recoding; control for the full effect not named in the record | Potency, µM (doses to about 57.9 µM), for the others: at the top dose signal change, negative = less light | hit rate 1.2% among 410,000 | AID 1159524, 2015; active = well fitted falling curve with a large enough effect; inconclusive = small, poorly fitted or top-dose-only effect; inactive = no such curve, though single readings can be large or run the other way; tested in HEK293T cells; note: % is set by controls: 0 for no effect and ±100 for the full control effect; nearly all actives have a fitted effect of over 45% in size; luciferase light after 4 h
An asterisk follows results filed as active; u = inconclusive; x = not tested or not shown; [ ] = dose if it differs, or a comment. Unless noted, calls come from the whole dose curve; as a rule, active = well fitted curve in the direction sought with a large enough effect; inconclusive = small, poorly fitted or top-dose-only effect, or another doubt; inactive = no such curve, though single readings can be large; an effect the other way counts as inactive or inconclusive. Potency is the fitted concentration of half-maximal effect.

smiles,SARS PLP yeast,Lassa entry inh,Cruzain inh Det,RE007 growth inh,MARV entry inh,Cruzain noTriton,NS1 function inh,2A StopGo
Cc1noc(C)c1COc1ccc(C(=O)NCc2ccccn2)cc1,-3%,-4%,0.8%,19%,0%,6%,5%,9%
CN(Cc1ccccc1)C(=O)c1cc2cc(F)ccc2[nH]1,-1%,-6%[46.1 µM],x,-7%,u,x,-1%,17%
CCN(CC)CCN1C(=O)C(=O)/C(=C(/O)c2ccc(C)cc2)C1c1ccncc1 (stereo not given),4%,x,2.4%,x,x,8%,6%,x
O=C(Cc1cc(=O)oc2cc(O)ccc12)N[C@@H](Cc1c[nH]c2ccccc12)C(=O)O,0%,2%[46.1 µM],x,-13%,0%[46.1 µM],x,3%,-7%
CCCn1c(C(C)Nc2nc(-c3ccc(Cl)c([N+](=O)[O-])c3)cs2)nc2ccccc21 (stereo not given),-13%,x,x,-5%,x,x,22%,-15%
Nc1c(-c2nn[nH]n2)cnn1-c1cc(Cl)cc(Cl)c1,0%,-15%,x,-9%,7%,x,-3%,40%[activator]
COc1ccc(C(CNC(=O)COc2ccc(Cl)c(C)c2)N2CCCCC2)cc1 (stereo not given),4%,x,x,1%,x,x,-6%,u
O=C(COC(=O)c1cc(-c2cccs2)nc2ccccc12)c1ccccc1,x,-17%[46.1 µM],-7.4%,x,6%[46.1 µM],-21%,x,7%
COc1ccccc1C1C(C(N)=O)=C(C)Nc2nc(SCc3ccccc3F)nn21 (stereo not given),x,8%[46.1 µM],1.4%,x,u,u,x,-3%
CCOc1ccc(N(Cc2nnc3n2CCCCC3)C(=O)Nc2cccc(C)c2)cc1,1%,11%[46.1 µM],x,-12%,u,x,x,13%

(further entries)
smiles,SARS PLP yeast,Lassa entry inh,Cruzain inh Det,RE007 growth inh,MARV entry inh,Cruzain noTriton,NS1 function inh,2A StopGo
CCOc1ccccc1C(=O)NCc1ccc2c(c1)OCO2,-6%,-9%,2.0%,u,-3%,-8%,-82%,6%
O=C(CS(=O)(=O)c1cccc2nsnc12)Nc1ccc(F)cc1,x,9%[46.1 µM],-1.7%,x,x,1%,x,0%
COC(=O)c1ccc2ncccc2c1,-1%,0%,-3.2%,-11%,-1%,-5%,0%,40%[activator]
CCCCCCCCCn1ccc(=N)cc1,1%,u,x,u,u,x,-68%,20µM*
NS(=O)(=O)c1ccc(Nc2nc(-c3cccc([N+](=O)[O-])c3)cs2)cc1,0%,-13%[46.1 µM],x,11%,-30%[46.1 µM],x,x,u
Cc1cc([N+](=O)[O-])ccc1NC(=O)CN1C2CCC1CC(NC(=O)NC13CC4CC(CC(C4)C1)C3)C2 (stereo not given),0%,-21%[46.1 µM],x,-5%,u,x,-2%,u
O=C(O)CC(C(=O)OCCOc1ccccc1)N1CCOCC1 (stereo not given),-11%,-2%,6.5%,2%,0%,-4%,0%,-11%
Cc1ccc(C(=O)NC(=S)N2CCN(C)CC2)cc1,4%,-7%,2.0%,-9%,16%,-1%,0%,4%
CCc1ccccc1NC(=O)CNC(=O)CNC(=O)Cc1ccccc1,-1%,0%,x,3%,21%,x,x,-16%
CSc1ncc(Cl)c(C(=O)Nc2ccc(C)c(C)c2)n1,1%,x,x,-4%,x,x,-6%,1%

(listing goes on)
smiles,SARS PLP yeast,Lassa entry inh,Cruzain inh Det,RE007 growth inh,MARV entry inh,Cruzain noTriton,NS1 function inh,2A StopGo
CCOc1ccc(NC(=O)c2sc3nc4n(c(=O)c3c2C)CCCC4)cc1,x,-19%[46.1 µM],-4.3%,x,x,1%,x,-17%
O=C(NCc1ccccc1)C(=O)NCC1OCCN1S(=O)(=O)c1ccc(Br)cc1 (stereo not given),0%,x,x,11%,x,x,-19%,u
Cc1cc(C)n(-c2nc(C)c(C)c(=O)n2CC(=O)Nc2ccc([N+](=O)[O-])cc2)n1,x,-23%[46.1 µM],-4.4%,x,x,-16%,x,-11%
O=C(Oc1ccc(/C=N/n2cnnc2)cc1)c1cccc([N+](=O)[O-])c1,1%,18%,x,1%,9%[46.1 µM],x,7%,-3%
CCC1(O)CC(C(=O)OC)=NN1C(=O)c1ccccc1 (stereo not given),-1%,10%,-0.7%,-8%,8%,4%,4%,x
COc1ccc(NC(C)=O)cc1NC(=O)CSc1nnc(-c2ccccn2)n1C,3%,2%,-1.2%,9%,3%,-9%,-6%,-6%
O=C(O)Cn1c(=O)c(F)cn(C2CCCO2)c1=O (stereo not given),3%,1%,x,30%,0%[46.1 µM],x,0%,4%
C=CCNC(=O)COCc1cc(-c2ccc3c(c2)OCO3)on1,0%,-5%[46.1 µM],x,13%,20%[46.1 µM],x,2%,3%
Cc1nc2c(-c3ccccc3)c(C)nn2c(C)c1CCC(=O)NC(C)c1ccccc1 (stereo not given),x,-13%[46.1 µM],-0.5%,x,u,u,x,-25%
Nc1nc2ccccc2n1C(=O)c1cccs1,-2%,u,x,-12%,u,x,x,12%

Going on with the list:
smiles,SARS PLP yeast,Lassa entry inh,Cruzain inh Det,RE007 growth inh,MARV entry inh,Cruzain noTriton,NS1 function inh,2A StopGo
COc1ccc(CNC(=O)CN=C2NC(=O)C(c3ccccc3)(c3ccccc3)N2)cc1,21%,6%,8.2%,0%,37%,-3%,-3%,9%
CC(=O)OC(C)C(=O)NS(=O)(=O)c1ccc(C)cc1 (stereo not given),1%,15%[46.1 µM],x,13%,u,x,x,5%
COc1cccc(N2CCN(C(=O)c3cnc4c(-c5ccccc5)c(C)nn4c3C)CC2)c1,x,3%[46.1 µM],-10%,x,x,u,x,-9%
COc1cccc(CN2CCSCC2)c1OC,-3%,24%[46.1 µM],x,-2%,4%[46.1 µM],x,4%,-9%
COc1cccc(N2CCN(C(=O)NC3CCCCC3)CC2)c1,24%,2%,2.3%,3%,1%,5%,-1%,-2%
Cc1cc(C)c(C#N)c(SCS(=O)c2ccc(C(C)(C)C)cc2)n1 (stereo not given),6%,-26%,2.3%,5%,u,-6%,-9%,x
CCCCN(CC(=O)NCCOC)C(=O)Cn1nnc2ccccc21,-4%,-22%,x,3%,3%[46.1 µM],x,x,-1%
S=c1[nH]nc(Cc2ccccc2)n1-c1ccccc1,0%,4%,4.2%,6%,14%,0%,-1%,-13%
COc1ccc(N(CC(=O)N/N=C/c2cccs2)S(=O)(=O)c2ccc(OC)c(OC)c2)cc1,-1%,u,-2.7%,-9%,-18%,17%,10%,x
O=C(O)CC/C(=N\NC(=O)CNC(=O)/C=C/c1ccccc1)c1ccccc1,-1%,17%[46.1 µM],x,12%,u,x,1%,4%

(more compounds)
smiles,SARS PLP yeast,Lassa entry inh,Cruzain inh Det,RE007 growth inh,MARV entry inh,Cruzain noTriton,NS1 function inh,2A StopGo
CCCCCOc1ccc(C(=O)NCC(=O)NCC(=O)OCC)cc1,1%,-6%,1.9%,-1%,u,3%,12%,-16%
CC(C)Cn1c(=O)c2ccccc2c2ccccc2c1=O,-32%,0%,-6.3%,11%,-8%,3%,-10%[9.22 µM],x
CC1(C)OC(=O)C(=CNc2ccccc2)C(=O)O1,2%,4%,-5.0%,35%,1%,-10%,-14%,22%
O=C(COC(=O)c1ccc(S(=O)(=O)N2CCCC2)cc1)Nc1ccccc1,2%,1%,x,0%,2%,x,x,-21%
CC(=O)N1CCN(c2ccc(C(N)=O)cc2[N+](=O)[O-])CC1,1%,2%[46.1 µM],x,u,u,x,x,-12%
CCc1cc2c(=O)nc3n(c2s1)Cc1ccccc1/C3=C(/O)c1cccc([N+](=O)[O-])c1,-9%,-4%,-3.7%,-8%,2%,u,-2%,-11%
Cn1c(=O)c2c(nc(SCC(=O)NCc3ccc4c(c3)OCO4)n2Cc2ccc(Cl)cc2)n(C)c1=O,-14%,1%,-3.6%,-3%,11%,19%,5%,-5%
COc1ccc(N2C(=O)C3C4C=CC(C4)C3C2=O)c(OC)c1 (stereo not given),1%,-1%,6.4%,15%,-4%,-2%,u,-16%
CCOc1cc(Br)c(COc2ccc(C)nc2[N+](=O)[O-])cc1OCC,-4%,u,x,-13%,u,x,-10%,-20%
Cc1cc(C(=O)COC(=O)c2ccco2)c(C)n1Cc1ccco1,-7%,15µM*,x,6%,u,x,x,8.9µM*

Continued.
smiles,SARS PLP yeast,Lassa entry inh,Cruzain inh Det,RE007 growth inh,MARV entry inh,Cruzain noTriton,NS1 function inh,2A StopGo
CCn1c(N)c(C(=O)NC)sc1=S,-5%,0%,-1.5%,-4%,14%,-10%,-93%,-28%
CCCOc1ccc(CN(CCC#N)C(=S)NC(=O)c2ccccc2)cc1,-30%,-20%,-8.2%,-3%,u,15%,-59%,-17%
CC(=O)Nc1ccc(S(=O)(=O)NCC(=O)NNC(=O)c2csc(N3CCOCC3)n2)cc1,x,-17%,x,-6%,-2%[46.1 µM],x,x,-7%
COc1cc(NC(=O)CSc2ccccc2)c(C(=O)O)cc1OC,16%,8%,0.7%,-9%,u,-8%,7%,-1%
O=C(Cn1c(=O)oc2cc(S(=O)(=O)N3CCCC3)ccc21)N1CCN(c2ccccc2)CC1,5%,x,4.9%,-4%,0%,-4%,9%,-2%
CCOC(=O)C1(Cc2ccc(Cl)cc2)CCN(Cc2cnc(N)nc2)CC1,u,-31%,x,-1%,-23%[46.1 µM],x,-6%,-16%
O=C(O)C1CC=CCC1C(=O)Nc1ccccc1C(=O)N1CCN(c2ccccc2)CC1 (stereo not given),17%,2%,1.6%,-20%,21%,7%,-1%,-19%
O=C(COc1ccccc1)Nc1nccs1,-1%,-17%,-0.3%,-9%,-24%,-7%,0%,x
N#Cc1ccccc1NC(=O)COC(=O)CN1C(=O)C2CCCCC2C1=O (stereo not given),0%,-8%[46.1 µM],x,-7%,3%[46.1 µM],x,x,-15%
COc1ccc(CNC(=O)C2CCCN2C(=O)NCc2ccccc2)cc1 (stereo not given),-5%,x,x,8%,x,x,-1%,8%
